Screens deposited in PubChem by National Center for Advancing Translational Sciences (NCATS).
Lassa entry inh – inhibitors of Lassa virus binding or cell entry | Lassa virus pseudotype entry inhibition, cell reporter; control for the full effect not named in the record | Potency, µM (series often up to 37.9 µM), without a hit: top-dose activity change, negative = inhibition, hits mostly inhibitors | 300,000 compounds, 1.2% hits | AID 540256; active means well fitted inhibition curve with a large enough effect; inconclusive means small, poorly fitted or top-dose-only effect, or effect the other way; inactive means flat fitted curve, though single readings scatter; tested in HEK293 cells; note: % is set by controls: 0 for no effect and ±100 for the full control effect; nearly all actives have a fitted effect of over 50% in size; luciferase read-out
Cruzain inh Det – blocks cruzain activity in presence of Triton detergent | P25779 | AID 1478 | 200,000 compounds, 0.43% hits | Potency, µM, without a hit: max response, negative = inhibition, most hits filed as inhibitors | purified cruzain, Z-FR-AMC fluorescence, 0.01% Triton;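 note: plate controls were neutral wells for no effect and buffer without enzyme for full effect; nearly all actives have a fitted effect of over 40% in size; top concentration of the series not given in the record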
Target sequence (P25779 123-467 limits assumed): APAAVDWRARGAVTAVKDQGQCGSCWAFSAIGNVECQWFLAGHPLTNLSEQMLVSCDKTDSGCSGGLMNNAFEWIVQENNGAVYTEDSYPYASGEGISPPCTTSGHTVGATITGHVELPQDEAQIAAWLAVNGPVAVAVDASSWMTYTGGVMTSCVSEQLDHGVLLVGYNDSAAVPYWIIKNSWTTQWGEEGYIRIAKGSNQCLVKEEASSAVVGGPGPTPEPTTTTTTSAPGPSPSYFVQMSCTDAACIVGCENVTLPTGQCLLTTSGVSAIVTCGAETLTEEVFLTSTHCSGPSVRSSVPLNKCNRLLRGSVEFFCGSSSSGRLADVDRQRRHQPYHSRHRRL
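Enzyme 1.5 nM, Z-FR-AMC 2 uM, NaOAc 100 mM pH 5.5, DTT 5 mM, Triton X-100 0.01%; 15 min RT compound preincubation; kinetic ex360/em450, 60 s delta.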
Cruzain noTriton – cruzain (T. cruzi) inhibition without detergent | purified cruzain, Z-FR-AMC fluorescence, no detergent | 200,000 compounds, 2.3% hits | Potency, µM, without a hit: max response, negative = inhibition, usual class: inhibitors | P25779;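 note: plate controls were enzyme without inhibitor for no effect and buffer without enzyme for full effect; nearly all actives have a fitted effect of over 40% in size; top concentration of the series not given in the record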
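Purified cruzain at 1.5 nM, pre-incubated 15 min with compound at room temperature in 100 mM sodium acetate pH 5.5, 5 mM DTT, 0.00005% Triton X-100. Reaction started with 2 uM Z-FR-AMC; AMC fluorescence increase over 60 s gives rate.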
SARS PLP yeast – SARS-CoV PLP inhibition in yeast. S. cerevisiae expressing SARS-CoV PLpro, growth rescue; control for the full effect not named in the record. Potency, µM (doses to about 32.9 µM), without a hit: at the highest dose activity, positive = growth rescue. 330,000 compounds, 0.19% hits. AID 485353; active means well fitted rising curve with a large enough effect; inconclusive means small, poorly fitted or top-dose-only effect; inactive means no such curve, though single readings can be large or run the other way; note: 0% is about no effect; nearly all actives have a fitted effect of over 55% in size; growth read by luminescence after 48 h
Starred values were filed as active, the others as inactive; ? = inconclusive; . = not tested or not shown; [ ] = remark or other dose. Unless noted, calls come from the whole dose curve; as a rule, active = well fitted curve in the direction sought with a large enough effect; inconclusive = small, poorly fitted or top-dose-only effect, or another doubt; inactive = no such curve, though single readings can be large; an effect the other way counts as inactive or inconclusive. Potency is the fitted concentration of half-maximal effect. An excerpt, so the mix of outcomes need not match the whole.

Compound,Lassa entry inh,Cruzain inh Det,Cruzain noTriton,SARS PLP yeast
CC(C)COC(=O)COc1cc(Cl)c(Cl)cc1Cl,.,-4.3%,-2%,-25%
O=C(Nc1ccc(Oc2ccc3nc(NC(=O)c4ccco4)[nH]c3c2)cc1)Nc1cc(C(F)(F)F)ccc1F,7.9µM*,.,.,.
Nc1nccc(-c2c(-c3ccc(F)cc3)nn3cc(C(F)(F)F)ccc23)n1,19%,.,.,.
CN(c1ccc(NC(=O)Nc2ccc(OC(F)(F)F)cc2)cc1)c1ccnc(Nc2cccc(S(N)(=O)=O)c2)n1,25µM*,.,.,.
O=C(C=Cc1ccccc1)Nc1cccc(C(=O)N2CCCC2)c1,?,.,.,.
N#Cc1cccc(Nc2nccc(-c3cnn4ncccc34)n2)c1,?,.,.,.
CCCCCCN1C[C@@H](O)[C@H](n2cc(C3CC3)nn2)C[C@H]1c1ccc(C)cc1,?,.,.,.
COC(=O)[C@H](Cc1ccccc1)N1C[C@@H](N2CCC[C@@H]2C)C[S+]1(=O)[O-],-7%[46.1 µM],.,.,.
COc1ccc(-c2oc3ncnc(N)c3c2-c2ccc(NC(=O)Nc3cc(C(F)(F)F)ccc3F)cc2)cc1,11µM*,.,.,.
CCCCNc1cccc2c1S(=O)(=O)N[C@@H](Cc1ccccc1)CO2,-5%[46.1 µM],.,.,.
O=C(c1ccccc1Cl)N1CCSCCS1(=O)=O,?,.,.,.
CC(C)[C@@H]1NC(=O)[C@@H]2CSCCS(=O)(=O)N2C1=O,?,.,.,.
CC(C)C[C@H]1COc2cccc(N3CCCC3)c2S(=O)(=O)N1,?,.,.,.
N#Cc1ccc(OCc2cn(CC(=O)c3ccc(O)cc3)nn2)cc1,1%[46.1 µM],.,.,.
CCCCOCC1CN(CCCC)S(=O)(=O)c2c(F)cccc2O1 (stereo not drawn),?,.,.,.
CC(C)[C@H]1COCCS(=O)(=O)N1Cc1ccccc1-c1cccc2c1sc1ccccc12,-4%[46.1 µM],.,.,.
CCn1c(-c2nonc2N)nc2cncc(C(=O)NCCNC)c21,?,.,.,.
COc1cccc(COc2cc(-n3cnc4ccccc43)sc2C(N)=O)c1,5µM*,.,.,.
C=CCP1(=O)O[C@H](C=C)C[C@H](C=C)O1 (stereo partly drawn),?,.,.,.
O[C@H]1CN(Cc2cccs2)[C@@H](c2ccccc2)C[C@H]1n1cc(C2CC2)nn1,?,.,.,.
O=C(Cn1cc(COc2ccc([N+](=O)[O-])cc2)nn1)c1ccc(O)cc1,5%[46.1 µM],.,.,.
CCCCCCN1C[C@@H](n2cc(COC(=O)c3ccccc3)nn2)[C@H](O)C[C@H]1c1ccccc1,13%[46.1 µM],.,.,.
COC(=O)c1cncc(C=Cc2c(C)cc(O)cc2C)c1,3.1µM*,.,.,.
CNC(=O)c1ncccc1Nc1nc(Nc2cc3c(cc2OC)CCCN3C(=O)CN(C)C)nc2[nH]ccc12,4µM*,.,.,.
Cn1c(-c2nonc2N)nc2cnccc21,?,.,.,.
O=C(C1CCCCC1)N1C[C@@H](n2cc(-c3ccc(F)cc3)nn2)[C@@H](O)C[C@@H]1c1ccccc1,-2%[46.1 µM],.,.,.
CCN(CC)S(=O)(=O)c1ccc(OC)c(Nc2ncc(-c3ccccc3)o2)c1,?,.,.,.
C=CCNc1ccc2c(c1)OC[C@@H](CC(C)C)NS2(=O)=O,9%[46.1 µM],.,.,.
CCCCCCN1C[C@H](O)[C@@H](n2cc(-c3ccc(F)cc3)nn2)C[C@H]1c1ccccc1,16µM*,.,.,.
CCCC=Cc1ccc(CN2C(C(C)C)C(=O)N(Cc3cn(CC4CCCCC4)nn3)CCS2(=O)=O)cc1 (stereo not drawn),25µM*,.,.,.

Letter code – A = Lassa entry inh; B = Cruzain inh Det; C = Cruzain noTriton; D = SARS PLP yeast
> c1ccc(-c2nc3n(c2-c2ccc4c(c2)OCO4)CCC3)nc1
  A: 10µM*	B: .	C: .	D: .

> Cc1ccc2c(-c3ccnc(Nc4ccc5c(c4)OCCO5)n3)c(-c3ccc(C(F)(F)F)cc3)nn2n1
  A: ?	B: .	C: .	D: .

> NS(=O)(=O)c1ccc(Nc2cc(-c3cccc(O)c3)[nH]n2)cc1
  A: ?	B: .	C: .	D: .

> CS(=O)(=O)Nc1ccc(N=Cc2c(O)[nH]c3ccccc23)cc1
  A: ?	B: .	C: .	D: .

> CC1(C)CN(CCc2ccccc2)C(=O)[C@@H]1CC(=O)Nc1ccccc1
  A: -4%[46.1 µM]	B: .	C: .	D: .

> COC[C@@H]1CCCN1[C@@H]1C[S+](=O)([O-])N[C@@H]1COCc1ccccc1
  A: -2%[46.1 µM]	B: .	C: .	D: .

> COc1cc2c(cc1Nc1nc(Nc3ccsc3C(N)=O)c3cc[nH]c3n1)N(C(=O)CN(C)C)CCC2
  A: 0.07µM*	B: .	C: .	D: .

> CCn1c(-c2nonc2N)nc2c(C#CC(C)(C)O)nc(CN3CCCC3)cc21
  A: ?	B: .	C: .	D: .

> COc1cc(C=NNc2ncnc3c2cnn3Cc2ccccc2)ccc1O
  A: 7.9µM*	B: .	C: .	D: .

> COc1ccc(-c2ccc(CN3C(C(C)C)C(=O)N(Cc4cn(CCC5OCCO5)nn4)CCS3(=O)=O)cc2)cn1 (stereo not drawn)
  A: 1%[46.1 µM]	B: .	C: .	D: .

> O=C(c1cccs1)N1C[C@@H](O)[C@@H](n2cc(-c3ccc(F)cc3)nn2)C[C@@H]1c1ccc(Cl)cc1
  A: -13%[46.1 µM]	B: .	C: .	D: .

> COc1ccc(C(C)(C)C)cc1NC(=O)OC[C@@H]1CSCCS(=O)(=O)N1
  A: 4%[46.1 µM]	B: .	C: .	D: .

> Cn1ccc2c(-c3ccc(F)cc3)cc3c(c21)C1CCC3O1 (stereo not drawn)
  A: 1%[46.1 µM]	B: .	C: .	D: .

> C[C@H](c1ccccc1)N1C[C@@H](COCc2ccccc2)Oc2cccc(Oc3ccc(F)cc3)c2S1(=O)=O
  A: 3.5µM*	B: .	C: .	D: .

> NS(=O)(=O)c1ccc(Nc2cc(-c3ccc(O)c(F)c3)[nH]n2)cc1
  A: 22%	B: .	C: .	D: .

Structures from the list above that contain two or more sulfur atoms, in the order listed:
Letter code – A = Lassa entry inh; B = Cruzain inh Det; C = Cruzain noTriton; D = SARS PLP yeast
> O=C(c1ccccc1Cl)N1CCSCCS1(=O)=O
  A: ?	B: .	C: .	D: .

> CC(C)[C@@H]1NC(=O)[C@@H]2CSCCS(=O)(=O)N2C1=O
  A: ?	B: .	C: .	D: .

> CC(C)[C@H]1COCCS(=O)(=O)N1Cc1ccccc1-c1cccc2c1sc1ccccc12
  A: -4%[46.1 µM]	B: .	C: .	D: .

> COc1ccc(C(C)(C)C)cc1NC(=O)OC[C@@H]1CSCCS(=O)(=O)N1
  A: 4%[46.1 µM]	B: .	C: .	D: .

Next compounds:
Letter code – A = Lassa entry inh; B = Cruzain inh Det; C = Cruzain noTriton; D = SARS PLP yeast
> O=C(OCc1cn([C@H]2C[C@H](c3ccc(Cl)cc3)N(C(=O)c3cccs3)C[C@H]2O)nn1)c1ccccc1
  A: ?	B: .	C: .	D: .

> C[C@@H]1N[S+](=O)([O-])c2ccc(F)cc2O[C@H]1c1ccccc1
  A: ?	B: .	C: .	D: .

> C=CS(=O)(=O)N[C@H](C)c1ccccc1
  A: ?	B: .	C: .	D: .

> O=S1(=O)CCSCCN1Cc1cccc(Cl)c1
  A: ?	B: .	C: .	D: .

> COc1ccc2ncnc(Nc3ccc(OCc4ccccc4)cc3)c2c1
  A: ?	B: .	C: .	D: .

> CN(C)CCOc1ccc(-c2cc(-c3ccc4c(c3)CCC4=NO)c(-c3ccncc3)o2)cc1
  A: ?	B: .	C: .	D: .

> NS(=O)(=O)c1cccc(-c2cc3ccncc3cc2OCc2ccccc2)c1
  A: ?	B: .	C: .	D: .

> CCCCNc1cccc2c1S(=O)(=O)N[C@H](Cc1ccccc1)CO2
  A: -4%[46.1 µM]	B: .	C: .	D: .

> COc1cccc(Nc2nccc(-c3cnn4ncccc34)n2)c1
  A: 0.56µM*	B: .	C: .	D: .

> CCn1c(-c2nonc2N)nc2c(C#CC(C)(C)O)ncc(OC3CCNCC3)c21
  A: ?	B: .	C: .	D: .

> NC(=O)c1sc(-n2cnc3cc(C(F)(F)F)ccc32)cc1OCc1ccccc1Br
  A: ?	B: .	C: .	D: .

> O[C@H]1C[C@H](c2ccccc2)N(CC2CCCCC2)C[C@H]1n1cc(-c2ccc(F)cc2)nn1
  A: -35%[46.1 µM]	B: .	C: .	D: .

> Cc1nnc(-c2cccc(-c3ccc(C(=O)NCC4CC4)cc3)c2)o1
  A: ?	B: .	C: .	D: .

> N#Cc1c(NC(=O)c2ccccc2F)sc2c1CCCC2
  A: ?	B: .	C: .	D: .

> CSC[C@H]1CN(c2ccc(Br)cc2)C(=O)[C@H]1CC(=O)Nc1ccccc1
  A: -31%[46.1 µM]	B: .	C: .	D: .

Letter code – A = Lassa entry inh; B = Cruzain inh Det; C = Cruzain noTriton; D = SARS PLP yeast
> COC(=O)[C@H](CC(C)C)N(Cc1ccc(Br)cc1)S(=O)(=O)CCl
  A: 7%[46.1 µM]	B: .	C: .	D: .

> c1ccc(Oc2ccc(Nc3ncc(-c4ccccc4)o3)cc2)cc1
  A: 0.25µM*	B: .	C: .	D: .

> O=C(OCc1cn([C@H]2C[C@H](c3ccccc3)N(C(=O)C3CCCCC3)C[C@H]2O)nn1)c1ccccc1
  A: 0%[46.1 µM]	B: .	C: .	D: .

> Cc1ccc(S(=O)(=O)N2CCC(=O)N([C@H](COCc3ccc(C(F)(F)F)cc3)C(C)C)CC2)cc1
  A: ?	B: .	C: .	D: .

> CS(=O)(=O)Nc1ccc(-c2ccc3c(NC(=O)C4CC4)n[nH]c3c2)cc1
  A: ?	B: .	C: .	D: .

> C#CCN1CC(COc2ccccc2)OCCS1(=O)=O (stereo not drawn)
  A: ?	B: .	C: .	D: .

> Oc1cccc(-c2nc(-c3ccccc3)[nH]c2-c2ccncc2)c1
  A: ?	B: .	C: .	D: .

> O=C(Nc1n[nH]c2nc(-c3ccc(O)cc3)c(Br)cc12)C1CC1
  A: ?	B: .	C: .	D: .

> CC(C)C[C@H]1COc2cccc(N3CCCCC3)c2S(=O)(=O)N1
  A: 14%[46.1 µM]	B: .	C: .	D: .

> C[C@H]1CN(C2CCCCC2)C(=O)[C@H]1CC(=O)Nc1ccc(Br)cc1
  A: ?	B: .	C: .	D: .

> CCCCCCN1C[C@@H](n2cc(C3CC3)nn2)[C@H](O)C[C@H]1c1ccc(C)cc1
  A: ?	B: .	C: .	D: .

> NS(=O)(=O)c1ccc(-c2cc3ccncc3cc2OCc2ccccc2)cc1
  A: ?	B: .	C: .	D: .

> COc1cc2ncn(-c3cc(OCc4ccccc4Cl)c(C(N)=O)s3)c2cc1OC
  A: 0.63µM*	B: .	C: .	D: .

> O=S1(=O)CC(N2CCCC2)CN1Cc1cn(Cc2ccc(C(F)(F)F)cc2)nn1 (stereo not drawn)
  A: ?	B: .	C: .	D: .

> O=S1(=O)CCSC[C@@H](CN2CCCC2)N1
  A: ?	B: .	C: .	D: .

> Nc1ncnc2occ(-c3ccc(NC(=O)Nc4cc(C(F)(F)F)ccc4F)cc3)c12
  A: 16µM*	B: .	C: .	D: .

> C=CS(=O)(=O)N[C@@H](CSSC[C@H](NS(=O)(=O)C=C)C(=O)OC)C(=O)OC
  A: 8%[46.1 µM]	B: .	C: .	D: .

> C[C@H]1COc2cccc(N3CCCC3)c2S(=O)(=O)N1
  A: 10%[46.1 µM]	B: .	C: .	D: .

Four records drawn at random from those above:
Letter code – A = Lassa entry inh; B = Cruzain inh Det; C = Cruzain noTriton; D = SARS PLP yeast
> CCCCCCN1C[C@@H](n2cc(C3CC3)nn2)[C@H](O)C[C@H]1c1ccc(C)cc1
  A: ?	B: .	C: .	D: .

> CC(C)C[C@H]1COc2cccc(N3CCCCC3)c2S(=O)(=O)N1
  A: 14%[46.1 µM]	B: .	C: .	D: .

> O=C(OCc1cn([C@H]2C[C@H](c3ccccc3)N(C(=O)C3CCCCC3)C[C@H]2O)nn1)c1ccccc1
  A: 0%[46.1 µM]	B: .	C: .	D: .

> C=CS(=O)(=O)N[C@@H](CSSC[C@H](NS(=O)(=O)C=C)C(=O)OC)C(=O)OC
  A: 8%[46.1 µM]	B: .	C: .	D: .
